Screens as filed in PubChem BioAssay.
Sa ugtP lethal: compounds lethal to S. aureus RN4220 ugtP deletion mutant; OD600 growth, 16 h; some inactives read as strong as hits; growth inhibition, % (test concentration not listed); 0.54% of 330,000 active;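 active means z-score under -3 and OD600 up to 0.15 on both plates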;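 further: plate controls were untreated wells for no effect and antibiotic for full effect; wells of about 80 µL received 100 nL stock; the first replicate is given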
Sa RN4220 lethal: S. aureus RN4220 growth inhibition | inhibition, % (test concentration not listed) | AID 1259311 | OD600, 16 h | 0.33% of 330,000 active;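 active means z-score of -3 or lower and OD600 up to 0.18 on both plates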;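 further: plate controls were untreated cells for no effect and reference antibiotic for full effect; stock transfer was 100 nL into about 80 µL; one replicate is shown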
Bead autofluor: flagged as autofluorescent in microsphere protease counterscreen; fluorescence intensity (test concentration not listed); 3.1% of 360,000 active; AID 624483; compound autofluorescence counterscreen, microsphere flow cytometry; active compounds read high;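 active means at least 3 SD above the mean of all compounds, about 16000 in these data; inconclusive means too few beads counted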;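 further: 100 nL of 1 mM stock went into each well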
Mtb hypoxia inh: reduces hypoxia-regulated biosensor signal in M. tuberculosis; M. tuberculosis hypoxia-regulated fluorescent reporter, fluorescence; fluorescence inhibition, % (no concentration beside the values); 0.1% of 300,000 active; AID 1159583;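 active means 35 to 45% if threefold the growth effect, above 45% if 1.5-fold the growth effect; inactive means the rest, general growth blockers included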;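 further: wells of about 50 µL received 100 nL stock; 0% = vehicle wells and 100% = reference inhibitor wells; whole bacteria with a GFP reporter of the hypoxia response; strong numbers were not always called active; many hits fall short of the cut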
BJeLR viability: BJeLR cell viability loss. BJeLR (HRASV12) viability, CellTiter-Glo ATP luminescence, 48 h; reference of the scale not given here. inhibition, % (concentration not given with the values). 0.17% of 300,000 active;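 active means replicate mean above 50%; inconclusive means above 50% but judged a plate artefact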;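 further: 50 nL library stock added to about 25 µL; numbers are from one replicate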
PrP 5UTR inh: inhibition of PrP 5' UTR reporter expression; AID 488862; 0.35% of 340,000 active; inhibition, % (no concentration beside the values); cell-based PrP 5' UTR mRNA reporter, plate reader;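 active means every replicate at 50% or more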;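 further: 0 = median of the neutral control wells; tested in H4 reporter cells; numbers are from one replicate; inactives centre near -14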
Mtb hypoxia inh growth: also measured in Mtb hypoxia inh; calls as there; growth inhibition, %; measured here: M. tuberculosis growth (absorbance);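 0% = vehicle and 100% = reference antibiotic; read after six days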
Numbers without * were called inactive; ? = inconclusive; · = not tested or not shown.

no.	structure	Sa ugtP lethal	Sa RN4220 lethal	Bead autofluor	Mtb hypoxia inh	Mtb hypoxia inh growth	BJeLR viability	PrP 5UTR inh
1	CCOC(=O)Cc1csc(NC(=O)c2ccco2)n1	8	3.4	20219*	7	1	-3	-42
2	CCOc1ccc(N(C(=O)c2ccccc2Cl)C2=NC(C)(C)CS2)cc1	15	7.7	4091	8	2	10	-32
3	C=CCn1cc(C(=O)NCCCOCC)c(=O)c2cc(S(=O)(=O)N(CC)CC)ccc21	-5	-0.4	23558*	3	3	5	-31
4	Cc1c(C)n(Cc2ccccc2)c2ncnc(NCCCN(C)C)c12	4	-0.3	3838	6	6	2	-12
5	Cc1c(NC(=O)C2CCCN(S(=O)(=O)c3cnc[nH]3)C2)c(=O)n(-c2ccccc2)n1C (stereo not given)	4	0.2	5372	·	·	8	8
6	CC(C)c1cc(C(=O)NN=C/C=C/c2ccccc2)n[nH]1	-3	4.1	·	12	5	·	·
7	COC(=O)C1=C(C)N(CCCC(=O)O)C(=O)NC1c1ccc(OC)cc1 (stereo not given)	0	-0.2	4049	-2	3	2	-3
8	Cc1cccc(C(=O)OCC(=O)N2CCCCCC2)c1	-2	-0.6	3627	2	7	·	-35
9	COCCCN(C(C)=O)c1nc(-c2ccc(OC)cc2)cs1	0	8.8	21678*	14	10	3	-50
10	Cc1cccc([C@@H]2[C@@H]3C(=O)N(Cc4ccccc4)C(=O)[C@@H]3[C@]3(C)C(=O)N(c4cccc(Cl)c4)C(=O)N23)c1	·	·	3739	·	·	5	-8
11	COC(=O)c1cccc(C=NNC(N)=S)c1O	10	2.1	·	·	·	·	·
12	Cc1cc(C)n(CC(=O)NCCC2=CCCCC2)n1	2	4.7	3743	8	12	-1	-13
13	COC(=O)C1=C(c2cccc(OC)c2OC)C[C@@H]2CC[C@H]1N2C(=O)NCCS(C)=O (stereo not given in full)	6	6.1	2903	-2	1	-12	-14
14	CCCS(=O)(=O)N1CCCC(C(=O)N2CCCCC2)C1 (stereo not given)	-3	5.3	4080	-2	-4	-8	-11
15	CCc1cccc(CC)c1NC(=O)CSc1nnc(C(C)C)n1CC	3	1.4	4575	·	·	-20	-23
16	Nc1nc(NCc2ccco2)nc(NCCO)c1[N+](=O)[O-]	7	3.4	4039	0	1	-2	-14
17	COc1cccc(/C=C/C(=O)OCC(=O)Nc2ccc(N3CCOCC3)cc2)c1OC	4	1.9	4360	16	4	-4	-13
18	Clc1ccc(-c2nnc3sc(-c4ccc(Br)o4)nn23)cc1	-15	4.9	2967	·	·	·	-40
19	CC1CCC2(CC1)NC(=O)N(CC(=O)Nc1cc(S(=O)(=O)N3CCCC3)ccc1Cl)C2=O (stereo not given)	-17	-2.6	2819	-4	1	·	-13
20	CCNc1nnc(-c2ccc(C)cc2)o1	7	8.2	3837	2	2	-9	-61
21	CCC(C)[C@@H](C(=O)N1CCNCC1)n1cc(CCCCN)nn1 (stereo not given in full)	·	·	3853	·	·	3	-3
22	Cn1c(SCc2cccnc2)nc2cccnc21	4	-1.5	2950	·	·	-1	-10
23	CS(=O)(=O)NNC(=O)Cn1nnc(-c2cc(C(F)(F)F)cc(C(F)(F)F)c2)n1	1	3.1	·	12	3	-6	·
24	CCN1C(=O)[C@H]2[C@@H](c3ccc(C)cc3)N3C(=O)N(c4ccc(C)cc4)C(=O)[C@@]3(C)[C@H]2C1=O	·	·	3895	·	·	5	-14
25	CCn1c(SCC(=O)N/N=C/c2c[nH]c3ccccc23)nnc1-c1ccc(C(C)(C)C)cc1	·	·	1871	·	·	-14	-2
26	COC(=O)c1cc(NC(=O)c2c(-c3ccccc3)noc2C)ccc1N1CCOCC1	5	1.9	?	2	-2	5	-13
27	O=C(N/N=C/C=C/c1ccco1)c1ccccc1Cl	·	·	3227	·	·	3	-15
28	CC(=O)N1c2ccc(S(=O)(=O)N3CCC(C(=O)Nc4cc(C)ccn4)CC3)cc2CC1C (stereo not given)	12	-2.9	5754	7	1	0	-12
29	Cc1ccc(SCC(=O)NCC2COc3ccccc3O2)cc1 (stereo not given)	-4	5.2	3631	-2	10	·	-9
30	O=C(O)COc1ccc(C(=O)c2ccccc2)cc1	9	3.1	3690	-9	2	-4	-16
31	Fc1ccc(C(CCNCc2ccccn2)c2ccc(Cl)cc2)cc1 (stereo not given)	1	-3.7	3490	5	18	-6	-11
32	COc1cccc(-c2noc(CCC(=O)NC3CCCC3)n2)c1	-1	-2.4	5598	-2	1	-2	-23
33	CCS(=O)(=O)N1CCC(C(=O)NCc2ccc(F)cc2)CC1	3	1.5	9472	-3	-2	0	-8
34	O=[N+]([O-])c1ccc(/C=N/n2cn[nH]c2=S)cc1	·	·	4218	·	·	8	-17
35	CC1CCCN(C(=O)C2CCN(CCCc3ccccc3)CC2)C1 (stereo not given)	6	6.2	·	11	15	1	·
36	Cc1cc(C(=O)NNC(=O)Cc2ccc(Cl)cc2)c(C)o1	-1	0.5	6225	4	-1	0	-6
37	CC(C)(C)OC(=O)NC(COCc1ccccc1)C(=O)NC(CO)C(O)C1CC1C(=O)NC1CCCCC1 (stereo not given)	6	5.3	·	-2	3	·	·
38	Fc1ccc(COc2ccccc2CNc2nn[nH]n2)cc1	-6	12	2515	10	6	-5	-26
39	COc1ccc2cc3cc(C(=O)NCCN4CCN(Cc5ccccc5)CC4)oc3nc2c1	13	-1.4	4078	·	·	8	-3
40	COc1ccc(C(CNC(=O)COc2ccc(F)cc2Br)N2CCCC2)cc1 (stereo not given)	-16	-1.0	4203	-1	10	2	-20
41	Nc1nc(SCc2ccccn2)c2ncn(C3OC(CO)C(O)C3O)c2n1 (stereo not given)	2	3.7	3712	9	1	·	-7
42	CC(C)CC1Nc2ncnc(N3CCCCC3)c2N(Cc2ccccc2)C1=O (stereo not given)	·	·	3015	·	·	-3	-3
43	CCOc1ccc(NC(=O)c2ccccc2SC)cc1	8	1.3	4690	7	13	-12	-45
44	Cc1c(N=Cc2c(O)n(C3CCCCC3)c(=O)[nH]c2=O)c(=O)n(-c2ccccc2)n1C	-6	1.0	3392	-4	12	7	-5
45	COC(=O)COc1cccc2c(=O)n(CC(=O)Nc3ccc4c(c3)OCCO4)ccc12	11	3.6	4301	2	-8	4	-1
46	Cc1ccnc(NC(=O)Cc2ccc(F)cc2)n1	2	5.4	4329	14	-4	2	-3
47	CCc1ccc(C2C(C#N)=C(N)OC3=C2C(=O)CCC3)s1 (stereo not given)	-1	4.1	2572	-9	-4	·	-24
48	CCOc1ccc(NC(=O)CCS(=O)(=O)c2cccc3nsnc23)cc1	4	1.5	3990	13	5	-2	-16
49	O=C(Nc1ccc(O)cc1)c1ccc(NC(=O)c2cccs2)cc1	-2	-1.6	6587	-4	9	-9	-46
50	CCOc1ccc(-c2nnc3ccc(SCC(=O)Nc4nc5ccccc5s4)nn23)cc1	-2	1.1	2476	-9	3	-4	-2

(continued)
no.	structure	Sa ugtP lethal	Sa RN4220 lethal	Bead autofluor	Mtb hypoxia inh	Mtb hypoxia inh growth	BJeLR viability	PrP 5UTR inh
51	O=C(c1ccc(Cl)c([N+](=O)[O-])c1)N1CCN(C(=O)c2ccco2)CC1	0	1.8	3521	0	12	15	-40
52	FC(F)(F)c1cnc(COc2ccc(Cl)cc2Cl)c(Cl)c1	1	1.8	5904	19	5	-11	-13
53	O=C(O)COc1ccc(Br)cc1/C=N/O	·	·	2336	·	·	3	-2
54	O=C(Cc1cccs1)NN=C/C=C/c1ccco1	-8	2.6	·	9	14	·	·
55	COc1ccc(/C=C(\C#N)C(=O)OCC(=O)NC(=O)NCCC(C)C)cc1	6	0.8	4212	7	-6	7	2
56	O=C(OCc1nc2scc(-c3ccccc3)c2c(=O)[nH]1)c1cccc([N+](=O)[O-])c1	-5	-0.7	1992	3	2	-4	-13
57	COc1cc(C2C(C(C)=O)=C(O)C(=O)N2CCc2ccc(OC)c(OC)c2)ccc1O (stereo not given)	-5	-5.0	2189	0	6	8	-3
58	O=C(CC(Cc1ccccc1)c1ccco1)NC1CCCCC1 (stereo not given)	1	-5.2	4601	-3	4	0	5
59	COc1ccc(C2/C=C\CN(S(=O)(=O)c3cccc4cccnc34)CC(=O)N2Cc2ccc(F)cc2)cc1 (stereo not given)	·	·	2812	·	·	-2	-13
60	CC(O)[C@H]1CNCCN1CCc1cccc2ccccc12 (stereo not given in full)	·	·	3729	·	·	0	-18
61	C#CC1(O)CC(C)NCC1(C)CCC#N (stereo not given)	-2	0.3	2985	·	·	-1	-13
62	COc1ccc(N2CCCCn3c2nc2c3c(=O)[nH]c(=O)n2C)cc1	1	-1.6	8614	8	1	0	-13
63	Cc1ccccc1Oc1ccc(NC(=O)C2CC=CCC2C(=O)O)cc1 (stereo not given)	1	-2.8	1985	7	5	2	-8
64	CCc1nc2ccccc2n1CCC(=O)O	8	1.6	7243	3	3	-9	-20
65	CCOC(=O)c1ccc(-c2ccc(C=NNC(=O)CN(c3ccccc3Cl)S(C)(=O)=O)o2)cc1	6	11	·	16	5	·	·
66	Cc1c(N2C(=O)CSC2c2ccccc2)c(=O)n(-c2ccccc2)n1C (stereo not given)	8	4.0	5414	-1	4	6	-20
67	CCC1CCCCN1CCCNC(=O)c1cn(CC)c2ccc(S(=O)(=O)N3CCc4ccccc4C3)cc2c1=O (stereo not given)	1	0.0	4331	8	1	-3	-22
68	O=C(COC(=O)Cc1n[nH]c(=O)c2ccccc12)Nc1ccc(Cl)cn1	2	2.1	6275	-3	0	·	-5
69	O=C(NC1(C(F)(F)F)NC(=O)N(C2CCCCC2)C1=O)c1cccs1 (stereo not given)	8	2.8	6952	3	-2	13	-13
70	O=C(Cc1cccs1)Nc1ccc(C(=O)O)cc1	4	3.1	4264	·	·	-7	-12
71	CCN(CC)S(=O)(=O)c1ccc(N2CCCC2)c(NC(=O)CN2C(=O)NC3(CCCC3)C2=O)c1	3	0.3	·	-8	-1	-1	77*
72	Clc1ccccc1Cn1nnc(-c2cccs2)n1	34	-5.7	2459	·	·	4	-66
73	O=C(N/N=C/c1cccc(O)c1)c1cc(-c2ccccc2)nc2ccccc12	·	·	3735	·	·	0	-12
74	Cc1ccc(Oc2ccc3c(c2)C(=O)N(c2cccc4cccnc24)C3=O)cc1	-5	2.2	20997*	7	8	-2	-15
75	Fc1ccc(/C=N/n2cnn(Cc3ccccc3Cl)c2=S)cc1	·	·	4364	·	·	-5	-12

Results in sequence from the entries so far:
Mtb hypoxia inh, compounds 63 to 71: 7, 3, 16, -1, 8, -3, 3, ·, -8

The results go on:
no.	structure	Sa ugtP lethal	Sa RN4220 lethal	Bead autofluor	Mtb hypoxia inh	Mtb hypoxia inh growth	BJeLR viability	PrP 5UTR inh
76	CCOc1ccc(NS(=O)(=O)c2ccc(NS(=O)(=O)c3cccs3)cc2)cc1	19	-16	4994	16	7	4	-22
77	CCc1nnc(NC(=O)CSc2nnc(C)n2Cc2ccccc2)s1	-3	4.7	6940	0	6	-3	-24
78	O=C1CC(c2ccccc2)CC(=O)N1c1ccc(C(F)(F)F)cc1	8	4.5	2801	6	-1	·	-13
79	CCN(CC(=O)Nc1ccccc1OC)C(=O)CSCC(=O)Nc1ccc(OC)cc1	3	1.4	?	1	1	5	-9
80	CN(C)CCN(Cc1ccco1)C(=O)c1oc2ccccc2c1NC(=O)COc1ccccc1	-3	1.0	5450	12	3	1	-7
81	O=C(CN1C(=O)NC2(CCCC2)C1=O)N1CCN(S(=O)(=O)c2cc(Cl)ccc2Cl)CC1	4	3.9	3781	5	3	·	0
82	CSC1=NCCN1C(=O)c1ccc(S(=O)(=O)N2CCOCC2)cc1	7	-0.3	6008	·	·	4	-18
83	CNC(=O)CSc1nc2cc(S(=O)(=O)Nc3ccc(OC)cc3)ccc2o1	4	-0.6	5701	12	0	-2	-21
84	COc1ccc(OC)c(S(=O)(=O)NC(N)=NCCc2ccccc2OC)c1	6	11	·	7	3	-4	·
85	O=C(NN=Cc1ccccc1[N+](=O)[O-])c1ccc2c(c1)OCCO2	3	6.1	·	3	4	·	·
86	COc1cc([N+](=O)[O-])cc2sc(NC(=O)c3c(F)cccc3F)nc12	-5	-0.9	4478	6	8	19	-12
87	COC(=O)CC1SC(=O)NC1=O (stereo not given)	0	0.6	3197	·	·	6	-14

Compounds were not picked by outcome; 3.9% or so of the library scored in one or more.
